Screening data: PubChem BioAssay, several laboratories
UCH37 DUB inh: human UCH37 deubiquitinating enzyme inhibition. AID 588478. 330,000 compounds, 0.33% hits. purified proteasome/UCH37, Ub-AMC cleavage fluorescence. inhibition, % (concentration not given with the values);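 active = mean of two replicates above 20%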;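 note: 0% = compound-free wells with enzyme and 100% = wells lacking proteasome; stock transfer was 100 nL into about 20 µL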
Target sequence (Q9Y5K5 whole entry, looked up): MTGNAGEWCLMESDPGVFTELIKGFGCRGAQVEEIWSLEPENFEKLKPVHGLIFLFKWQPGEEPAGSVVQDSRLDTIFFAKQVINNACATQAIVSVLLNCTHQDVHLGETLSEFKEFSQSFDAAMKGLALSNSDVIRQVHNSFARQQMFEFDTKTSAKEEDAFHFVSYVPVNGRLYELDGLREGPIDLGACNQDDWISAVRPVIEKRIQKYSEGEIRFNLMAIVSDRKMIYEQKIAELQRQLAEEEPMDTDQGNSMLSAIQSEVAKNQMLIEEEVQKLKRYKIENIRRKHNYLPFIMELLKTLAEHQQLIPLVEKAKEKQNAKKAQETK
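Test system – human UCH37 enzyme supplied as purified proteasome complex · Incubation – 30 min preincubation with enzyme, 25 min cleavage at room temperature · Detection – AMC fluorescence from Ub-AMC cleavage, excitation 355 nm, emission 460 nm · Benchmarks – no-proteasome wells (full inhibition) and compound-free wells (no inhibition)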
Ecoli growth: blocks Escherichia coli growth | OD600, 23 h; stronger effect = lower value | OD600 absorbance (test concentration not listed) | 330,000 compounds, 0.21% hits | AID 1053175;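 active = OD600 absorbance below the run mean of sample wells minus 3.6 SD, in any replicate, cut at about 0.56 in these data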;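 note: stock transfer was 300 nL into about 60 µL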
ALR inh: inhibitors of human sulfhydryl oxidase ALR | P55789 | purified ALR, DTT oxidation, H2O2 HRP-luminol luminescence | inhibition, % (no concentration beside the values) | 290,000 compounds, 3.8% hits;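 active = mean and each replicate at 75% or more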;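 note: stock transfer was 7.5 nL into about 7.5 µL; 0% = neutral wells and 100% = wells with inactivated enzyme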
Ecoli rRNA inh: inhibitors of bacterial rRNA selective over humanized ribosomes; AID 720706; GFP signal change (wild-type ribosome), % (concentration not given with the values); E. coli WT GFP vs humanized-ribosome RFP mutants, fluorescence, 24 h; stronger effect = lower value; DMSO median 0, no signal -100; 350,000 compounds, 1.6% hits;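 active = significant combined selectivity score with lowered wild-type GFP, culture density cut under 30%, mutant RFP and density less affected; inactive = any of these conditions unmet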; note: one replicate is shown; some compounds called inactive have numbers as strong as hits
HNF4A DNA FP: change in binding of human HNF4 alpha to DNA. 360,000 compounds, 0.3% hits. P41235. HNF4a-FITC DNA binding, fluorescence polarization, 1 h. AID 1224865. activity change, % at 10 µM; in the data active = activity change above about 30%, passing the limit was not always enough;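 note: controls were the assay level and a saturating level of protein; the project sought stronger binding though the title names inhibitors; some compounds called inactive have numbers as strong as hits; positive values seem to mean higher polarization but the record does not say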
B2AR ag: agonists of human beta-2 adrenergic receptor inducing internalization | P07550 | Am2.2-beta2AR cells, FAP receptor internalization, flow cytometry; reference of the scale not given here | response, % (no concentration beside the values) | 340,000 compounds, 0.43% hits | AID 504454;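 active = response above a set limit, near 3 SD of response in nonfluorescent compounds, cut at about 42% in these data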;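 note: stock transfer was 100 nL into about 11 µL; a reference agonist was the positive control; negative values mostly stem from fluorescent compounds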
Target sequence (P07550 whole entry, looked up): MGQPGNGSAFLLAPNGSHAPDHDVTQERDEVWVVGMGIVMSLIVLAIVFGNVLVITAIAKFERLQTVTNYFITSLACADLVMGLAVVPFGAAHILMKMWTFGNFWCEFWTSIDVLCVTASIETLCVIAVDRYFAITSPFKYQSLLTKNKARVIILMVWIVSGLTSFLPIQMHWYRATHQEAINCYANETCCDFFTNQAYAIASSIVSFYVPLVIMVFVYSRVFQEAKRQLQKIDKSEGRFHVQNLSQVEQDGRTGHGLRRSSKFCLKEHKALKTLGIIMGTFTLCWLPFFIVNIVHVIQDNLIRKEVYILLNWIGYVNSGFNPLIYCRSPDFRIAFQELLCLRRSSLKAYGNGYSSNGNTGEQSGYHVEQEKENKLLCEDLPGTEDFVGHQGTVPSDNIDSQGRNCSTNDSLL
FGF22 binding: binders of recombinant human FGF22 by thermal shift | Q9HCT0 | SYPRO orange fluorescence; percent of sucrose octasulfate shift, DMSO zero | calls only at 9.99 µM | 340,000 compounds, 1.5% hits;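 active = melting point raised past a set limit in the mean and every replicate; three in four hits are not shown here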
Target sequence (Q9HCT0 whole entry, looked up): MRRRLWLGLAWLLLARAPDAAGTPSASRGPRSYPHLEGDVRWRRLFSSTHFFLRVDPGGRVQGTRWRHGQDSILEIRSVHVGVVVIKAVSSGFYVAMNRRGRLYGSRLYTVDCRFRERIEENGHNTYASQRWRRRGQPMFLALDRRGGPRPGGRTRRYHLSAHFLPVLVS
Ecoli rRNA inh OD600: also measured in Ecoli rRNA inh; calls as there; OD600 change, %; measured here: OD600 growth;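 optical density of the mix in the first replicate; 0 = DMSO median and -100 = no signal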
Ecoli rRNA inh RFP: also measured in Ecoli rRNA inh; calls as there; RFP signal change, %; measured here: RFP humanized mutant strains;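 first replicate; 0 = DMSO median and -100 = no signal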
Active calls of the source: *; i = inactive; nt = not tested or not shown; & = joins results of further samples.

SMILES	UCH37 DUB inh	Ecoli growth	ALR inh	Ecoli rRNA inh	Ecoli rRNA inh OD600	Ecoli rRNA inh RFP	HNF4A DNA FP	B2AR ag	FGF22 binding
CCn1c(C(=O)NCc2cccnc2)cc2sc(Cl)cc21	3.4	0.67	nt	nt	nt	nt	-9.7	-8	nt
CCCC1(c2ccccc2)NC(=O)N(CC(=O)NCc2ccc(OC)cc2)C1=O (stereo unspecified)	4.4	0.67	-8	-1	6	-0.6	-1.8	7	i
Cc1cc(N2CCN(C(C(=O)NC3CCCC3)C(C)C)CC2)c2ccccc2n1 (stereo unspecified)	nt	nt	nt	2	-1	-2.2	-2.7	nt	i
CN1CCN(C(=O)C2CC(=O)N(c3ccc(F)c(Cl)c3)C2)CC1 (stereo unspecified)	2.1	0.66	-13	3	5	0.1	-4.1	-2	i
COc1ccccc1OCc1ccc(C(=O)NC2CCCCC2)o1	2.1	0.66	5	-5	-3	-2.0	-3.4	-9	i
CC(NS(=O)(=O)c1ccccc1)C(c1cccs1)N1CCN(C)CC1 (stereo unspecified)	4.1	0.66	-3	nt	nt	nt	287	1	nt
CCCCn1c(N)c(N(C(=O)CSc2nnnn2-c2ccc(C)cc2)C2CCCC2)c(=O)[nH]c1=O	nt	nt	nt	10	10	0.8	-0.5	-6	i
CCCCn1nnnc1C(c1ccccc1)N1CCN(c2ccccn2)CC1 (stereo unspecified)	nt	nt	nt	-27	-26	-2.4	1.5	nt	i
CSCCC(NC(=O)c1ccc(Cl)cc1Cl)C(=O)N1CCCCCCC1 (stereo unspecified)	1.4	0.69	nt	-18	-18	-4.3	-1.4	-6	i
Cc1ccc(COn2c(-c3ccc(Cl)cc3Cl)nc3ncccc32)cc1	-2.5	0.74	-8	nt	nt	nt	-0.5	-19	nt
CC(C)(C)c1ccc(OCCC(=O)NNC(=O)c2ccccc2)cc1	0.9	0.64	nt	1	-25	-5.9	0.1	-4	i
Cc1cc(C)cc(N(CC(=O)NC2CCCC2)C(=O)CNC(=O)c2cccs2)c1	4.2	0.7	nt	5	5	0.1	3.2	-11	i
CC(=O)C1=CCC(c2ccccc2)N(S(=O)(=O)c2cccc(C)c2)C1 (stereo unspecified)	nt	nt	nt	-3	-48	0.0	-0.7	nt	i
CCOc1ccccc1NC(=O)c1ccccc1-c1nc(-c2ccccc2)no1	4.2	0.68	8	nt	nt	nt	11	11	nt
Cn1cnc([N+](=O)[O-])c1Oc1ccccc1	6.6	0.64	45	-37*	13*	-5.7*	-0.2	10	i
Cc1ccc(-n2nc(C)c3c(C)c(CCC(=O)NCc4ccccc4)c(C)nc32)cc1	-84	0.72	-16	6	10	-0.1	2.0	2	i
CCOC(=O)C1CCN(C(=O)c2cccc(NC3=NC4CS(=O)(=O)CC4S3)c2)CC1 (stereo unspecified)	2.0	0.77	-14	1	11	-4.3	-1.8	4	i
Cc1ccc(OCC(=O)N(Cc2cccc(Cl)c2)C2CCS(=O)(=O)C2)cc1C (stereo unspecified)	1.3	0.66	-2	2	-15	-0.3	-1.2	-1	i
O=C(CCn1c2c(c3ccccc31)CCCC2)NNC(=O)c1cccc([N+](=O)[O-])c1	3.9	0.71	58	nt	nt	nt	0.1	5	nt
CN1CCN(C2=C(Cl)C(=O)C(c3cnc(N4CCCCC4)s3)=C(Cl)C2=O)CC1	-22	0.68	18	nt	nt	nt	-1.2	8	nt
Cc1cc(OCC(=O)NCCc2ccc(S(N)(=O)=O)cc2)c2c(C)c(C)c(=O)oc2c1	-15	0.67	3	3	7	-0.8	1.9	-4	i
CCOC(=O)c1cc(C)nnc1C(=O)OCC	nt	nt	nt	-1	4	-1.2	-2.5	nt	i
Cc1c(CCOC(=O)c2cc([N+](=O)[O-])cc([N+](=O)[O-])c2)sc[n+]1CC(=O)c1ccccc1	2.3	0.63	-29	6	3	5.7	-0.4	-15	i
NC(=O)Cc1nc2scc(-c3ccccc3)c2c(=O)[nH]1	-2.8	0.74	-4	5	-2	9.3	6.7	8	i
Cn1c(=O)c2c(SCC(=O)N3CCOCC3)nc(-c3ccccc3F)nc2n(C)c1=O	3.2	0.7	-6	3	3	-0.3	0.1	-1	i
Cc1cccc(OCC(=O)NC(=S)N2CCCc3ccccc32)c1	2.5	0.68	43	12	-3	2.1	-2.4	-4	i
COc1ccc(-n2nc(C(=O)NCC(=O)NC3CCCCC3)c3ccccc3c2=O)c(OC)c1	1.8	0.65	-2	8	11	3.0	-0.1	-1	i
CCOC(=O)[C@H]1[C@H]2COc3cc(OC)ccc3[C@@H]2N2C(=O)CN(C)C(=O)[C@@]12C	0.1	nt	-4	9	21	-3.4	3.7	-1	i
CC(=O)Nc1nc(SCC(=O)NCc2ccc(F)cc2)[nH]c(=O)c1NC(=O)c1cccs1	43*	0.67	-11	14	10	-2.2	-2.5	3	nt
COCC(C)OC(=O)C(C#N)c1nc2ccccc2nc1N1CCN(Cc2ccccc2)CC1 (stereo unspecified)	-4.6	0.74	-20	nt	nt	nt	-0.1	-10	nt

Complete entries as entered above. Values in the order: UCH37 DUB inh, Ecoli growth, ALR inh, Ecoli rRNA inh, Ecoli rRNA inh OD600, Ecoli rRNA inh RFP, HNF4A DNA FP, B2AR ag, FGF22 binding
Profile of CCOc1ccccc1NC(=O)c1ccccc1-c1nc(-c2ccccc2)no1 : 4.2, 0.68, 8, nt, nt, nt, 11, 11, nt
Profile of CN1CCN(C2=C(Cl)C(=O)C(c3cnc(N4CCCCC4)s3)=C(Cl)C2=O)CC1 : -22, 0.68, 18, nt, nt, nt, -1.2, 8, nt
Profile of Cc1c(CCOC(=O)c2cc([N+](=O)[O-])cc([N+](=O)[O-])c2)sc[n+]1CC(=O)c1ccccc1 : 2.3, 0.63, -29, 6, 3, 5.7, -0.4, -15, i
Profile of Cc1ccc(-n2nc(C)c3c(C)c(CCC(=O)NCc4ccccc4)c(C)nc32)cc1 : -84, 0.72, -16, 6, 10, -0.1, 2.0, 2, i
Profile of CCn1c(C(=O)NCc2cccnc2)cc2sc(Cl)cc21 : 3.4, 0.67, nt, nt, nt, nt, -9.7, -8, nt

Later entries
SMILES	UCH37 DUB inh	Ecoli growth	ALR inh	Ecoli rRNA inh	Ecoli rRNA inh OD600	Ecoli rRNA inh RFP	HNF4A DNA FP	B2AR ag	FGF22 binding
O=C(NCc1nc2ccccc2[nH]1)c1ccccc1F	3.1	0.7	-3	-5	4	0.0	-1.4	-3	i
CCN(CC)CCn1c(N)cc(=O)[nH]c1=O	6.2	0.7	4	10	14	-1.3	-0.7	6	nt
COC(=O)NCc1ccc(S(=O)(=O)N2CCOCC2)cc1	2.1	0.7	-4	nt	nt	nt	-4.5	0	nt
COc1ccc(C)cc1NC(=O)c1ccc2c(=O)n3c(nc2c1)CCCCC3	3.6	0.7	-2	8	3	2.6	-2.2	0	i
COc1cc(CN2CCCC(C(=O)c3ccc4c5c(cccc35)CC4)C2)cc(OC)c1O (stereo unspecified)	-121	0.7	-31	31	-5	9.4	4.1	14	i
Cc1ccc(NC(=O)Cc2ccc(-n3cccc3)cc2)c(C)c1	3.0	0.72	14	nt	nt	nt	-1.8	-3	nt
Cc1cnc(CNC(=O)c2csc([C@@H]3O[C@H](CO)[C@H](O)[C@H](O)[C@H]3O)n2)cn1	nt	nt	nt	11	17	-4.6	3.0	nt	i
Cc1cc(F)ccc1-c1cc(C(=O)NC(C)C)[nH]n1	nt	nt	nt	5	10	-2.8	3.0	nt	i
CCCCCCC(=O)NNC(=O)CC(=O)Nc1ccccc1C(=O)O	1.1	0.7	1	nt	nt	nt	1.7	2	nt
O=C(O)/C=C/c1ccc(S(=O)(=O)N2CCN(CCN3C(=O)C4C5C=CC(C5)C4C3=O)CC2)cc1 (stereo unspecified)	0.6	0.71	-1	19	12	1.0	3.1	-7	i
COc1ccc(C(=NNc2ccccc2C(=O)O)c2ccc(OC)cc2)cc1	8.6	0.67	32	7	9	-1.1	-1.3	0	i
COc1ccc(C2C(C(=O)N3CCCCC3)CC(=O)N2c2ccc(OC)cc2)cc1 (stereo unspecified)	1.9	0.72	-7	nt	nt	nt	1.6	-11	nt
CSc1ccccc1NC(=O)CN(C)C(=O)Cn1c(=O)oc2ccccc21	1.3	0.65	-23	1	7	-3.7	-1.2	8	i
COc1cc(C(=O)NC(c2ccccc2)c2ccccc2)cc(OC)c1OC	0.1	0.63	-5	8	8	-2.2	-0.2	-6	i
C[C@@H]1CN([C@@H](C)CO)S(=O)(=O)c2ccc(Br)cc2O[C@H]1CN(C)Cc1ccccc1F	nt	nt	nt	-38&-35	-60&-51	16&10	3.2	nt	i
COc1ccc(-c2nc(CSCC(=O)N3CCN(c4cccc(C)c4)C(C)C3)c(C)o2)cc1OC (stereo unspecified)	0.4	0.73	99*	-12	-19	2.2	-2.6	1	i
CCCCNC(=O)COC(=O)c1cc(C)nc2ccccc12	-0.2	0.75	-9	1	0	-7.5	-6.6	-3	i
COc1ccc(-c2ccc3oc(-c4ccsc4)cc(=O)c3c2)cc1F	-13	0.73	-5	3	10	-0.2	3.7	-5	i
CCc1nc2c(cnn2-c2ccc(Cl)cc2)c(=O)n1-c1ccc2c(c1)OCCO2	4.5	0.69	-4	nt	nt	nt	-0.7	9	nt
CC(C)CCNC(=O)C(=O)NCc1ccccc1	3.8	0.65	-5	12	12	-1.1	7.7	1	i
CCN1CCN(c2c(Cl)cccc2NC(=O)c2ccco2)CC1	0.7	0.69	-2	nt	nt	nt	-1.2	1	nt
NC(=O)NCCCC(=O)OCC(=O)c1ccc2ccccc2c1	-97	0.64	-21	-6	-7	-1.4	1.1	0	i
COc1cccc(C(=O)Nc2ncc3c(n2)CC(C)(C)CC3=O)c1	-3.7	0.7	-3	nt	nt	nt	-1.0	-9	nt
CCOc1ccc(CC(=O)Nc2c(C(N)=O)oc3ccccc23)cc1OCC	-0.1	0.75	7	nt	nt	nt	0.1	2	nt
Cc1ccc(N2CC(=O)Nc3c(sc4nc(C)cc(C)c34)C2=O)cc1	3.7	0.63	-8	nt	nt	nt	-1.1	-5	i
CCOC(=O)/C(C#N)=C1/SC(C)C(=O)N1c1ccc(Br)cc1 (stereo unspecified)	2.2	0.65	72	nt	nt	nt	1.7	-2	nt
COc1cc2c(cc1OC)CN(C(=O)CCNC(=O)c1ccccc1Cl)CC2	0.5	0.63	9	4	8	1.3	1.5	-12	i
CC(C)c1ccc(C(=O)NNC(=O)c2ccncc2)cc1	3.2	0.71	nt	1	2	-0.8	-2.0	-1	i
COc1ccc(NC(=O)C2CCN(S(C)(=O)=O)CC2)cc1OC	0.7	0.63	-4	13	13	-1.1	-2.5	0	i
COC(=O)C1=C(C)N(C(C)C)C(=O)C1(NC(=O)C1CCCCC1)C(F)(F)F (stereo unspecified)	3.5	0.72	-12	14	9	-3.6	-4.7	2	i
COc1cccc(-c2cc(C(=O)N3CCOCC3)no2)c1	2.0	0.67	0	11	7	-0.3	2.0	3	i
O=c1c2[nH]c3ccc(F)cc3c2ncn1C1CCCCC1	-0.2	0.76	-4	nt	nt	nt	0.9	1	nt
Brc1ccccc1C1CC(c2ccccc2)=Nc2ccccc2N1 (stereo unspecified)	-0.6	0.68	-2	-9	-10	7.8	13	11	i

Gathered by group: the compounds so far with a COOH group
SMILES	UCH37 DUB inh	Ecoli growth	ALR inh	Ecoli rRNA inh	Ecoli rRNA inh OD600	Ecoli rRNA inh RFP	HNF4A DNA FP	B2AR ag	FGF22 binding
CCCCCCC(=O)NNC(=O)CC(=O)Nc1ccccc1C(=O)O	1.1	0.7	1	nt	nt	nt	1.7	2	nt
O=C(O)/C=C/c1ccc(S(=O)(=O)N2CCN(CCN3C(=O)C4C5C=CC(C5)C4C3=O)CC2)cc1 (stereo unspecified)	0.6	0.71	-1	19	12	1.0	3.1	-7	i
COc1ccc(C(=NNc2ccccc2C(=O)O)c2ccc(OC)cc2)cc1	8.6	0.67	32	7	9	-1.1	-1.3	0	i

An excerpt; count on the stated rates, not on these rows.
